Sa RN4220 lethal = growth inhibition of S. aureus RN4220, primary screen, OD600. 16 h. hit rate 0.33% among 330,000. inhibition, % (no concentration beside the values);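 active means z-score of -3 or lower and OD600 up to 0.18 on both plates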;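 further: plate controls were untreated cells for no effect and reference antibiotic for full effect; stock transfer was 100 nL into about 80 µL; one replicate is shown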
Bead autofluor = compound fluorescence in toxin protease inhibitor counterscreen. hit rate 3.1% among 360,000. fluorescence intensity (no concentration beside the values). compound autofluorescence counterscreen, microsphere flow cytometry; hits give high values;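 active means at least 3 SD above the mean of all compounds, about 16000 in these data; inconclusive means too few beads counted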;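 further: 100 nL of 1 mM stock went into each well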
PrP 5UTR inh = inhibition of PrP 5' UTR reporter expression; cell-based PrP 5' UTR mRNA reporter, plate reader; inhibition, % (test concentration not listed); hit rate 0.35% among 340,000;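 active means every replicate at 50% or more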;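 further: 0 = median of the neutral control wells; tested in H4 reporter cells; numbers are from one replicate; inactives centre near -14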
BJeLR viability = MLPCN primary cell-based screen for lethality selective to Ras in HRASV12 cells. inhibition, % (no concentration beside the values). BJeLR (HRASV12) viability, CellTiter-Glo ATP luminescence, 48 h; reference of the scale not given here. hit rate 0.17% among 300,000. AID 1554, 2009;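 active means replicate mean above 50%; inconclusive means above 50% but judged a plate artefact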;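 further: 50 nL library stock added to about 25 µL; numbers are from one replicate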
Mtb hypoxia inh = PubChem AID 1159583. M. tuberculosis hypoxia-regulated fluorescent reporter, fluorescence. fluorescence inhibition, % (no concentration beside the values). hit rate 0.1% among 300,000;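 active means 35 to 45% if threefold the growth effect, above 45% if 1.5-fold the growth effect; inactive means the rest, general growth blockers included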;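 further: wells of about 50 µL received 100 nL stock; 0% = vehicle wells and 100% = reference inhibitor wells; whole bacteria with a GFP reporter of the hypoxia response; strong numbers were not always called active; many hits fall short of the cut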
Sa ugtP lethal = growth inhibition of ugtP-null S. aureus, primary screen, RN4220 ugtP deletion, OD600. 16 h; some inactives read as strong as hits. growth inhibition, % (test concentration not listed). hit rate 0.54% among 330,000;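 active means z-score under -3 and OD600 up to 0.15 on both plates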;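 further: plate controls were untreated wells for no effect and antibiotic for full effect; wells of about 80 µL received 100 nL stock; the first replicate is given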
Mtb hypoxia inh growth = recorded beside Mtb hypoxia inh, whose call it bears; growth inhibition, %; measured here: M. tuberculosis growth (absorbance);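 0% = vehicle and 100% = reference antibiotic; read after six days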
* = called active by the depositor; ? = inconclusive; . = not tested or not shown; & = joins results of further samples.

Start of the data: the first four entries, to show the layout:
smiles,Sa RN4220 lethal,Bead autofluor,PrP 5UTR inh,BJeLR viability,Mtb hypoxia inh,Mtb hypoxia inh growth,Sa ugtP lethal
Cc1nn(Cc2ccccc2)c(C)c1C=C1C(=O)NC(=O)NC1=O,-1.5,7222,-19,-4,4,2,9
Cc1c(Cl)c(C(F)F)nn1CC(=O)NC1C(=O)N2C(C(=O)O)=C(CSc3nnnn3C)CSC12 (configuration not stated),100*,4481,-26,2,.,.,97*
O=C(NCC1CCCO1)c1cccc(NC(=O)c2cccs2)c1 (configuration not stated),3.7,4139,3,7,16,8,4
Cc1ccc(-c2nc(CS(=O)CC(=O)N3CCC4(CC3)OCCO4)c(C)o2)cc1 (configuration not stated),4.0,21619*,5,-5,-6,3,-4

The whole of this part, from the start:
smiles,Sa RN4220 lethal,Bead autofluor,PrP 5UTR inh,BJeLR viability,Mtb hypoxia inh,Mtb hypoxia inh growth,Sa ugtP lethal
Cc1nn(Cc2ccccc2)c(C)c1C=C1C(=O)NC(=O)NC1=O,-1.5,7222,-19,-4,4,2,9
Cc1c(Cl)c(C(F)F)nn1CC(=O)NC1C(=O)N2C(C(=O)O)=C(CSc3nnnn3C)CSC12 (configuration not stated),100*,4481,-26,2,.,.,97*
O=C(NCC1CCCO1)c1cccc(NC(=O)c2cccs2)c1 (configuration not stated),3.7,4139,3,7,16,8,4
Cc1ccc(-c2nc(CS(=O)CC(=O)N3CCC4(CC3)OCCO4)c(C)o2)cc1 (configuration not stated),4.0,21619*,5,-5,-6,3,-4
O=C(NCc1ccccn1)c1cn(-c2ccccc2)nc1-c1ccc(Cl)cc1,-5.4,9376,-18,5,0,-5,9
COc1ccc(N(CC(=O)NCCc2cccc(C)c2)S(=O)(=O)c2c(C)noc2C)cc1,1.2,5764,-24,-6,6,0,2
CC(=O)c1ccc(NC(=S)N(Cc2ccccc2)C(C)C2CC2)cc1 (configuration not stated),3.2,4835,-13,1,5,8,9
CCC(CC)C(=O)c1c[nH]c(C(=O)NCc2ccccn2)c1,0.9,4307,2,-1,3,12,-5
COc1cc2c(cc1NC(=O)COC(=O)[C@@H](NC(=O)c1ccccc1)C(C)C)oc1ccccc12,-2.4,2225,-21,-3,1,9,-17
O=C1N/C(=C\c2ccc(O)cc2)C(O)=C1C=NCc1ccccc1,2.8,2053,-10,-9,-3,3,-2
O=C(CCc1ccccc1)NNC(=O)Nc1ccc(Br)cc1,-2.7,?,-3,2,0,2,-14
CSc1ccc(C(=O)C2CCCN(C)C2)cc1 (configuration not stated),3.9,3779,-17,-3,-1,7,6
COc1ccc(Nc2ncnc3sccc23)c(OC)c1,-0.2,3089,6,-1,9,0,-12
O=C(NCCCN1CCCC1)c1ccc(Cn2c(=S)[nH]c3ccc(Br)cc3c2=O)cc1,-15,.,.,1,16,24,-3
CC(=O)N1CCc2cc(S(=O)(=O)NCCC(=O)NC3CCCCCC3)ccc21,5.2,4984,1,14,14,1,6
CC(C)(C)NC(=O)C(c1ccncc1)N(C(=O)Cn1nnc(-c2cccs2)n1)C1CCCCC1 (configuration not stated),3.8,4021,-28,-6,1,10,10
COc1ccc(C)cc1NC(=O)CSc1nc(=O)n(CCCN2CCOCC2)c2c1CCCC2,4.5,5601,-26,1,4,11,7
CC(=O)C1C(c2ccc(OC(F)F)cc2)NC(=O)NC1(O)C(F)(F)F (configuration not stated),-1.0,5116,-9,-6,8,1,11
CC(C)c1nccn1S(=O)(=O)c1cc([N+](=O)[O-])ccc1Cl,6.7,2533,-37,-3,3,3,-1
COc1cc(CCC(=O)Nc2ccncc2Cl)cc(OC)c1OC,1.3,6436,0,-4,8,1,6
CC(C)C[C@H](NC(=O)OC(C)(C)C)C(=O)N[C@@H](CO)[C@H](O)[C@@H]1C[C@@H]1C(=O)N1CCCC1,.,3850,-3,-4,.,.,.
CCOC1OC(C(=O)N2CCCCCCC2)=CC(C2CCCCC2)C1CCCO (configuration not stated),7.9&7.8,.,.,.,9&21,4&9,4&10
CCCCCCCCCCCCN1C(CC(C)=O)c2cc(C(F)(F)F)ccc2S1(=O)=O (configuration not stated),-0.8,.,.,.,14,8,3
CCCCc1nc2n[nH]c(N)c2c2c1CCC2,-0.3,5913,-13,.,.,.,11
Cc1ccc(C)c(Sc2ccc(NC(=O)CCl)cc2)c1,25,.,.,1,9,7,-30
O=C(c1cc(-c2ccc(F)cc2)on1)N1CCCC1,7.8,10839,.,-2,18,15,7
Cc1ccc(NC(=O)NC(=O)N(C(C)C)S(=O)(=O)c2ccc(C)cc2)cc1,-4.2,5094,-19,-11,10,5,0
C[C@H](CO)N1C[C@H](C)[C@@H](CN(C)S(=O)(=O)c2ccc(F)cc2)Oc2ccc(NC(=O)Cc3cn(C)c4ccccc34)cc2C1=O,-10,2984,-13,.,0,10,-1
Cc1ccccc1NC(=O)C(=O)NC(C)CCc1ccccc1 (configuration not stated),5.2,2374,-24,2,11,13,9
CCc1ccc(CN2CC(C(=O)O)CC2=O)cc1 (configuration not stated),-0.6,10554,.,-9,-1,13,4
Cc1cccc(N=C2c3cc([N+](=O)[O-])ccc3-c3c2cc([N+](=O)[O-])cc3[N+](=O)[O-])c1,0.7,2807,2,.,12,12,2
Cc1ccc(NS(=O)(=O)c2cc(C(=O)Nc3cccc([N+](=O)[O-])c3)ccc2C)cc1,-13,7349,-2,0,8,7,-12
C[C@@H](CO)NC(=O)c1ccc2c3n(nc2c1)-c1ccc(Cl)cc1CO3,.,3669,-48,7,.,.,.
CCN1C(=O)C2(C(C(=O)c3ccc(C)o3)=C(O)C(=O)N2CCCN2CCOCC2)c2ccccc21 (configuration not stated),7.9,9683,-22,-4,18,8,-1
C/C(=N\Nc1nc(N)cc(Cl)n1)c1ccc(Cl)c(Cl)c1,.,4336,-71,-1,.,.,.
CCCCn1c(N)c(NCCC(C)C)c(=O)[nH]c1=O,6.1,10737,-15,.,3,1,-1
COc1ccc(CN2CCC(C(=O)c3ccc(F)cc3)CC2)cc1,2.3,5067,-67,0,-5,-13,-3
Cc1ccc(C(=O)NNC(=O)c2cc(OCC(F)(F)F)ccc2OCC(F)(F)F)cc1,21,21489*,-19,-5,7,9,5
COc1ccc(C(=O)NC(C)CCc2ccccc2)c(O)c1 (configuration not stated),-2.6,3855,-21,-2,1,-3,4
CCCC(=O)NC(c1ccco1)c1cc(Cl)c2cccnc2c1O (configuration not stated),2.2,2819,-5,21,1,5,-21
CCN(CC)S(=O)(=O)c1ccc(C(=O)NCCN2C(=O)S/C(=C\c3cccnc3)C2=O)cc1,2.3,3651,-5,2,3,14,-10
COC(=O)/C=C/c1ccc(-n2cncn2)cc1,5.6,2509,-17,1,17,16,8
COc1cc(OC)cc(C(=O)N2CCN(c3ncccn3)CC2)c1,3.6,9501,-23,-1,18,6,3
Nc1c(N(CCC2=CCCCC2)C(=O)Cc2ccccc2F)c(=O)[nH]c(=O)n1Cc1ccccc1,9.1,.,-10,.,14,6,5
O=C(Cn1c(=O)cnc2ccccc21)NCC(=O)Nc1ccc(F)c(F)c1,0.5,5491,-17,-2,-6,2,-2
Cc1ccc(C(=O)NNC(=O)c2ccc(C)cc2)cc1,11,3293,4,-2,5,-1,-4
O=C(O)c1ccc(N/N=C/c2c[nH]c3ccccc23)cc1,.,3847,47,7,.,.,.
N=C1C(c2ccccc2)=C(O)CN1NC(=O)c1ccccc1,0.7,3058,-20,1,1,7,8
O=C(CNC(=O)OCc1ccccc1)Nc1ccc(F)cc1,0.4,9256,-12,.,5,-12,8
Cc1ccc(S(=O)(=O)n2[nH]c(=O)cc2NC(=O)c2cccs2)cc1,9.4,.,.,-4,4,0,3
Cc1ccc(-c2noc(CN(C(=O)CCCN3C(=O)c4ccccc4C3=O)C(C)C)n2)cc1,5.6,3486,-2,-5,.,.,8
CCN(C(=O)COC(=O)C12CC3CC(CC(NC(C)=O)(C3)C1)C2)C1CCCCC1,2.2,5303,2,.,-1,-1,3
CCOc1ccc(C=NNC(=O)C2CC2)cc1OC,-0.1,.,.,.,8,11,5
O=C(COc1ccccc1Cl)c1ccc[nH]1,8.3,5441,-32,0,-3,0,2
Cc1ccc(NC(=O)C(C#N)=Cc2cc(C)n(-c3ccc(N4CCOCC4)c([N+](=O)[O-])c3)c2C)c(C)c1,3.8,.,.,.,3,3,-9
O=C(NC1CCCCC1)c1ccccc1NC(=S)NC(=O)C1CCC1,4.3,1906,-4,2,9,-1,0
C=CCNC(=S)N1CCN(c2ccccc2Cl)CC1,2.2,4090,-41,0,9,9,3
COc1ccc(N2CCN(C(=O)c3ccc(S(=O)(=O)N4CCCCCC4)cc3)CC2)cc1,0.3,4009,-24,.,-5,11,3
CCOc1ccc(S(=O)(=O)Nc2cccc(C(=O)N(C)Cc3cccc(OC)c3OC)c2)cc1,2.7,7060,-8,6,3,-5,7
Cc1csc(NS(=O)(=O)c2cccc([N+](=O)[O-])c2)n1,3.0,4433,1,1,-5,4,2

Next part:
structure	Sa RN4220 lethal	Bead autofluor	PrP 5UTR inh	BJeLR viability	Mtb hypoxia inh	Mtb hypoxia inh growth	Sa ugtP lethal
CC(C)(C)c1ccc(-c2nc(C#N)c(N3CCC(C(N)=O)CC3)o2)cc1	2.2	2906	-7	2	10	1	19
CCOc1ccc(N2C(=O)CC(N(CCc3ccc(OC)cc3)C(=O)c3cccc(F)c3)C2=O)cc1 (configuration not stated)	-1.7	2454	-4	-5	-1	-4	-17
c1ccc(C2OCCN3CCCCC23)cc1 (configuration not stated)	4.0	2542	-11	.	5	-2	5
CC(C)CNC(CC(=O)Nc1cccc([N+](=O)[O-])c1)C(=O)O (configuration not stated)	2.2	2174	-3	1	4	-2	3
COc1ccc(NC(=S)NC(NC(=O)c2cccc(C)c2)C(Cl)(Cl)Cl)c([N+](=O)[O-])c1 (configuration not stated)	-6.6	4615	-11	.	.	.	-2
CC(C)[C@H](NS(=O)(=O)c1cccc(Cl)c1)C(=O)OCC(=O)NC(=O)CN1CCCC1=O	5.6	2812	-20	.	0	-7	5
CN(Cc1ccncn1)C(=O)CC1C(=O)NCCN1Cc1cccc(Oc2ccccc2)c1 (configuration not stated)	7.1	4831	-12	4	0	0	-3
Cc1cc(Nc2c(C)n(C)n(-c3ccccc3)c2=O)n2c(nc3cc(F)c(F)cc32)c1C#N	4.8	.	.	2	3	4	11
NC(=O)c1ccc(NC(=O)c2cnc3ccccc3n2)cc1	3.3	4308	-57	-13	-6	-1	2
Nc1nccc(/C=C/c2ccc(Cl)cc2)n1	12	3417	-62	-5	8	2	5
Cc1ccc(C(=O)NN=C2CC3CC=CC23)c(C)c1 (configuration not stated)	1.6	.	.	.	4	9	5
O=C1NCC(c2ccccc2)C1C(=O)N/N=C\c1ccc(-c2ccc(Cl)c(Cl)c2)o1 (configuration not stated)	.	3155	-9	-3	.	.	.

Compound profiles, from the list above. Order of screens: Sa RN4220 lethal | Bead autofluor | PrP 5UTR inh | BJeLR viability | Mtb hypoxia inh | Mtb hypoxia inh growth | Sa ugtP lethal
CC(C)[C@H](NS(=O)(=O)c1cccc(Cl)c1)C(=O)OCC(=O)NC(=O)CN1CCCC1=O in the list: 5.6 | 2812 | -20 | . | 0 | -7 | 5
CCOc1ccc(N2C(=O)CC(N(CCc3ccc(OC)cc3)C(=O)c3cccc(F)c3)C2=O)cc1 (configuration not stated) in the list: -1.7 | 2454 | -4 | -5 | -1 | -4 | -17
CN(Cc1ccncn1)C(=O)CC1C(=O)NCCN1Cc1cccc(Oc2ccccc2)c1 (configuration not stated) in the list: 7.1 | 4831 | -12 | 4 | 0 | 0 | -3

Screens: PubChem BioAssay, several laboratories

Rows are unselected; overall some 3.9% were active at least once.
